Mtb H37Rv: M. tuberculosis H37Rv growth inhibitors, H37Rv strain (AID 1626). M. tuberculosis H37Rv growth inhibition; higher % means a stronger effect. hit rate 0.95% among 220,000. inhibition, % at 10 µM; hits with a dose series show IC50 in µM;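 active = confirmed in a dose series; inconclusive = inhibition above 80% but not taken into the dose series; inactive = below 80% or under 30% at every dose of the series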;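 note: bacteria incubated seven days before Alamar blue readout; 0% = bacteria only wells and 100% = bacteria with antibiotic wells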
YopH PTP inh: blocks Yersinia enterocolitica YopH tyrosine phosphatase; fluorescence Ex485/Em525; inhibition, %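 (about 10 µM by stock and volumes)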; hit rate 0.16% among 140,000; AID 898;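 active = inhibition of 50% or more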;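 note: controls were vehicle for no effect and minimum signal wells for full effect; inactives centre near -20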
Arbovirus anti: blocks arbovirus infection; arbovirus infection cell-based antiviral screen; hit rate 0.37% among 200,000; inhibition, % at 10 µM; AID 1251;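 active = inhibition from about 30%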;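 note: bluetongue infection of BSR cells; cell survival read as ATP light after 72 h; 0% = infected wells without compound and 100% = uninfected wells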
Mtb bLac sens: beta-lactam sensitization of Mtb H37Rv | M. tuberculosis H37Rv growth with meropenem, percent inhibition; hits of this screen are not shown here | inhibition, % at 25 µM | hit rate 0.27% among 330,000;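 active = about 74% or more and at least 40 points above the plate without the antibiotic, then above 30% in a dose series; inconclusive = first-round hits that could not be retested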;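 note: growth measured after seven days incubation then overnight dye step; 0% = bacteria only wells and 100% = bacteria with antibiotic; twin plates without the antibiotic show which effects depend on it; some results filed as inactive read as strong as hits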
RecA splice inh: blocks M. tuberculosis RecA intein splicing; P9WHJ3; cell-free RecA intein splicing, fluorescence; hit rate 0.75% among 290,000; inhibition, %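 (about 9 µM by stock and volumes)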; in the data active = inhibition above about 30%; inconclusive = no clear call, values can overlap the other calls;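 note: 0% = vehicle wells and 100% = reference inhibitor control wells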
Target sequence (P9WHJ3 whole entry, looked up, canonical isoform): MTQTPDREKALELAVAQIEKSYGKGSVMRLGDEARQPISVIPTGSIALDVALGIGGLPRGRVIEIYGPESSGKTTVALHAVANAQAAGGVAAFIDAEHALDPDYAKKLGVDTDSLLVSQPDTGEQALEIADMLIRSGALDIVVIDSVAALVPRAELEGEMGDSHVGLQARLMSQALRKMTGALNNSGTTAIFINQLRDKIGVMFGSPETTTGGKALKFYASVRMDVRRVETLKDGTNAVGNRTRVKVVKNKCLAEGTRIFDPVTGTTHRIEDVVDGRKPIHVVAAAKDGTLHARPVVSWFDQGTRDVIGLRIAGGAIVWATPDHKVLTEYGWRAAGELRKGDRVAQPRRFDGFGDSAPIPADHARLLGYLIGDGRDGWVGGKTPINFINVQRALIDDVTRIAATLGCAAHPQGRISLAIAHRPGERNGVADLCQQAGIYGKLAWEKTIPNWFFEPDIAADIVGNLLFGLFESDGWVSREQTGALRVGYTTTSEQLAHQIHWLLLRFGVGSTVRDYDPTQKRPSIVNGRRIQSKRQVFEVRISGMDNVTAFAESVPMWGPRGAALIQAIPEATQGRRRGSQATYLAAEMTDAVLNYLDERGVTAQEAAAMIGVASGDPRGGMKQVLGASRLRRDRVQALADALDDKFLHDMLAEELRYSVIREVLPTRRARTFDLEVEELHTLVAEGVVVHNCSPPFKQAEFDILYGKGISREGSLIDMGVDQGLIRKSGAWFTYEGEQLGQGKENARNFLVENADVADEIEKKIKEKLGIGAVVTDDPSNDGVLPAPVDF
Numbers without * were called inactive; ? = inconclusive; nt = no result given.

SMILES | Mtb H37Rv | YopH PTP inh | Arbovirus anti | Mtb bLac sens | RecA splice inh
Cc1ccc(S(=O)(=O)N2CCOCC2)cc1NC(=O)C1CC(=O)N(c2ccc3c(c2)OCCO3)C1 (stereo unspecified) | nt | nt | nt | -1 | 4.5
COC(=O)c1ccc(CNC(=O)N2CCN(S(=O)(=O)c3ccc(C)cc3)CC2)cc1 | nt | nt | nt | 1 | 2.2
CCCC(=O)Nn1cnc2c(c1=O)C1(CCCC1)Cc1ccccc1-2 | 7% | -23 | -5 | -7 | -2.8
CCCc1ccc(OCCNC(=O)c2ccco2)cc1 | nt | nt | nt | 0 | 1.1
OC1(c2ccccc2)Cc2cccc[n+]2C1c1ccccc1 (stereo unspecified) | -2% | nt | nt | -8 | -0.8
COc1ccc(NC(=O)CSc2nnc(-c3ccco3)n2C)cc1 | -7% | -27 | -3 | -1 | 1.8
CCCOC(=O)CSc1nc(N)c(C#N)c(-c2ccco2)c1C#N | <0.2µM* | -16 | -9 | 100 | 1.3
Cc1c(NC(=O)C(C)Sc2ncnc3ccccc23)c(=O)n(-c2ccccc2)n1C (stereo unspecified) | 5% | nt | 4 | 3 | -0.7
COc1ccc(Nc2cccc(Cl)c2)c(C(=O)O)c1 | 7% | -33 | 19 | -3 | -2.0
COc1cc(C2CC(=O)Oc3c2c(=O)n(C)c2ccccc32)ccc1O (stereo unspecified) | -11% | nt | -2 | 1 | -3.9
O=C(N/N=C(\c1ccccc1)c1ccccn1)c1ccccc1Cl | nt | nt | nt | 95 | 5.0
O=C(Cc1ccccc1)N/N=C/c1ccc(Cl)cc1Cl | 4% | -29 | -3 | 0 | nt

Retrieved by compound from the list above (3):
SMILES | Mtb H37Rv | YopH PTP inh | Arbovirus anti | Mtb bLac sens | RecA splice inh
CCCc1ccc(OCCNC(=O)c2ccco2)cc1 | nt | nt | nt | 0 | 1.1
CCCOC(=O)CSc1nc(N)c(C#N)c(-c2ccco2)c1C#N | <0.2µM* | -16 | -9 | 100 | 1.3
COc1ccc(NC(=O)CSc2nnc(-c3ccco3)n2C)cc1 | -7% | -27 | -3 | -1 | 1.8

Going on with the list:
SMILES | Mtb H37Rv | YopH PTP inh | Arbovirus anti | Mtb bLac sens | RecA splice inh
O=P1(c2ccccc2)C=Cn2c1cc1c2CCCC1 (stereo unspecified) | -3% | -42 | 1 | -3 | 1.0
O=C1N/C(=N/O)S/C1=C/c1cccc([N+](=O)[O-])c1 | 60% | nt | -5 | 42 | 0.2
O=C(NC1(C(F)(F)F)NC(=O)N(Cc2cccnc2)C1=O)c1ccccc1 (stereo unspecified) | 4% | 25 | 8 | 4 | 1.5
CCOc1cc(/C=N/n2c(COc3ccccc3)n[nH]c2=S)ccc1O | nt | nt | nt | ? | 0.1
CCCCCCN1N=C(C)C(C(=O)c2ccc(Cl)cc2)C1=O (stereo unspecified) | ? | -40 | -12 | 94 | 4.9
O=C(Nc1ccncc1)c1ccc(NS(=O)(=O)c2cccc(F)c2)cc1 | 7% | -26 | -3 | 11 | -1.6
CN(C)c1nc(C(=O)Nc2ccccc2)nc(N(C)C)n1 | 8% | 10 | -9 | 22 | 2.4
O=C(O)CCNC(=O)CCCn1nnc2ccccc2c1=O | -1% | nt | nt | 2 | 0.8
CCc1ccccc1NC(=O)N1CCCC(CCC(=O)N(C)CCc2ccccn2)C1 (stereo unspecified) | -4% | nt | 3 | 4 | -0.5
O=C1CCc2cc(S(=O)(=O)N3CCC(C(=O)NC4CCCc5ccccc54)CC3)ccc2N1 (stereo unspecified) | -6% | -33 | -7 | 6 | 3.3
CC(C)(C)CC(=O)O/N=C(\N)c1ccccn1 | 8% | 1 | 6 | -9 | -0.5
CC1CC(C)(C)CC(=O)C1C(=O)c1ccccc1 (stereo unspecified) | nt | nt | nt | -5 | -0.3
Cc1ccc(-n2c(SCC(N)=O)nnc2-c2ccccn2)cc1 | -5% | -17 | 5 | 0 | -0.8
C/C(Cn1cnc([N+](=O)[O-])n1)=N\NC(=O)c1ccccc1F | 3% | -2 | 3 | 98 | -0.4
Cc1cc(NC(=O)Cn2nnc3sc4c(c3c2=O)CCC(C(C)(C)C)C4)no1 (stereo unspecified) | 65% | -36 | -10 | 92 | 3.4
CCCCCCC(C)n1cc(C(C)=O)c(=O)[nH]c1=O (stereo unspecified) | -6% | -20 | 0 | 7 | -0.7
Cc1csc2c(N3CCN(C(=O)Nc4ccc(Cl)c(Cl)c4)CC3)ncnc12 | 6% | nt | nt | 0 | -1.4
CC(=O)c1ccc(N2CCN(C(=O)c3c(-c4ccccc4Cl)noc3C)CC2)cc1 | nt | nt | nt | -13 | 0.2
O=C(Nc1cc2c(cc1Cl)OCCCO2)c1ccc(F)cc1 | 2% | -16 | -9 | 5 | 6.8
COc1ccc(CC2(CO)CCN(Cc3nc(C(C)C)cs3)CC2)cc1 | -3% | nt | -1 | -5 | -1.0
CN1CCN(C(=O)c2cc3cc(Cl)ccc3[nH]2)CC1 | nt | nt | nt | 3 | -0.4
Cc1ccccc1CS(=O)(=O)c1cn(CC(=O)N2CCC(C)CC2)c2ccccc12 | 1% | -30 | 5 | 0 | 0.5
CC(=O)c1ccc(NC(=O)C2CCN(S(=O)(=O)c3cccnc3)CC2)cc1 | nt | nt | nt | 13 | -0.7
NC(=O)C1CCN(C(=O)c2ccc3c(=O)n(Cc4ccco4)c(SCc4ccc([N+](=O)[O-])cc4)nc3c2)CC1 | nt | nt | nt | 4 | -1.2
CC1CCCCN1C(=O)Nc1cccc(Cl)c1 (stereo unspecified) | -5% | -42 | -1 | 12 | -0.4
Cc1ccccc1NC(=O)COC(=O)Cc1ccsc1 | 3% | nt | 2 | 8 | 0.5
Cc1cc(C)c(C)c(S(=O)(=O)N2CCC(C(=O)N3CCCCCCC3)CC2)c1C | nt | nt | nt | 2 | 12
C/C=C/C(=O)OCC(=O)Nc1c(Cl)cccc1Cl | -9% | 2 | 2 | -9 | -1.5
CCOc1ccc(C2NC(=O)c3ccccc3O2)cc1 (stereo unspecified) | -7% | -49 | 3 | -4 | 0.2
CN(C)S(=O)(=O)c1cccc(NC(=O)c2ccc3c(c2)S(=O)(=O)N=C2CCCCCN23)c1 | nt | nt | nt | 6 | -8.2
C/C(=N\OC(=O)c1ccc(C)cc1)c1c(C)nc2cc(C)ccn12 | -14% | nt | 10 | -2 | -0.1
C/C(=N\Nc1cc(C)nc(NCc2ccccc2)n1)c1cccc([N+](=O)[O-])c1 | 2% | nt | nt | -3 | -0.1
O=C(O)c1ccc(-c2sc(Nc3ccccc3)n[n+]2-c2ccccc2)cc1 | nt | nt | nt | -2 | -2.3
CN(C)C(CNC(=O)c1cc(S(=O)(=O)N(C)c2ccccc2)ccc1Cl)c1ccccc1 (stereo unspecified) | -4% | nt | nt | -5 | 2.3
Cc1[nH]nc(Sc2ccccn2)c1[N+](=O)[O-] | -5% | -44 | 1 | -4 | -8.1
C=CCNC(=O)c1ccc(OC)cc1OC | -15% | -26 | 3 | -2 | -0.8
Cc1cc(NC(=O)CSc2nc3cc(Cl)ccc3s2)no1 | 5% | 0 | -5 | -1 | 2.6
Cc1cc(=O)oc2cc(OCC(=O)N3CCN(c4ccc(F)cc4)CC3)ccc12 | nt | nt | nt | 5 | -5.5
Cc1cc(C)c(S(=O)(=O)n2cc(C(C)C(N)C(=O)O)c3ccccc32)c(C)c1 (stereo unspecified) | nt | nt | nt | -11 | 0.4
COc1ccccc1N1CCN(CCN2C(=O)CC(=C3c4ccccc4-c4ccccc43)C2=O)CC1 | -8% | -4 | nt | 0 | nt
CCN1CCN(C(=O)C2CCC(=O)N(CCCN3CCCC3=O)C2)CC1 (stereo unspecified) | nt | nt | nt | -7 | 0.8
Cc1cc(C)nc(NS(=O)(=O)c2ccc(NC(=O)C3(c4ccccc4)CCCC3)cc2)n1 | -6% | -28 | 2 | -1 | 2.6
Cc1c(N=C(N)/N=C(\N)Nc2ccc(Br)cc2)c(=O)n(-c2ccccc2)n1C | 0% | -19 | 4 | 8 | -0.9
O=C1CCN(C(=O)c2ccc(Cl)cc2)N1 | 3% | nt | 11 | -3 | 0.1
COc1ccc(S(=O)(=O)N2CC(=O)Nc3ccccc32)cc1Cl | nt | nt | nt | 5 | -2.9
CC(=O)Nc1cccc(NC(=O)CSc2nnc(NC(=O)C3CC3)s2)c1 | nt | nt | nt | -5 | -0.8
O=C(NCCCn1ccnc1)/C(=C\c1ccc(Br)cc1)NC(=O)c1ccccc1F | nt | nt | nt | -14 | 2.0
O=C(Nn1c(C2CCC2)nc2ccccc2c1=O)C1CCC1 | 0% | -41 | -7 | 3 | -5.8

Structures from the list above that contain fluorine, in the order listed:
SMILES | Mtb H37Rv | YopH PTP inh | Arbovirus anti | Mtb bLac sens | RecA splice inh
O=C(NC1(C(F)(F)F)NC(=O)N(Cc2cccnc2)C1=O)c1ccccc1 (stereo unspecified) | 4% | 25 | 8 | 4 | 1.5
O=C(Nc1ccncc1)c1ccc(NS(=O)(=O)c2cccc(F)c2)cc1 | 7% | -26 | -3 | 11 | -1.6
C/C(Cn1cnc([N+](=O)[O-])n1)=N\NC(=O)c1ccccc1F | 3% | -2 | 3 | 98 | -0.4
O=C(Nc1cc2c(cc1Cl)OCCCO2)c1ccc(F)cc1 | 2% | -16 | -9 | 5 | 6.8
Cc1cc(=O)oc2cc(OCC(=O)N3CCN(c4ccc(F)cc4)CC3)ccc12 | nt | nt | nt | 5 | -5.5
O=C(NCCCn1ccnc1)/C(=C\c1ccc(Br)cc1)NC(=O)c1ccccc1F | nt | nt | nt | -14 | 2.0

Copied from the list.
Mtb bLac sens, C/C(=N\Nc1cc(C)nc(NCc2ccccc2)n1)c1cccc([N+](=O)[O-])c1 → -3
RecA splice inh, CC(=O)c1ccc(NC(=O)C2CCN(S(=O)(=O)c3cccnc3)CC2)cc1 → -0.7
RecA splice inh, Cc1cc(NC(=O)Cn2nnc3sc4c(c3c2=O)CCC(C(C)(C)C)C4)no1 (stereo unspecified) → 3.4
Mtb bLac sens, Cc1cc(=O)oc2cc(OCC(=O)N3CCN(c4ccc(F)cc4)CC3)ccc12 → 5
Mtb H37Rv, COc1cc(C2CC(=O)Oc3c2c(=O)n(C)c2ccccc32)ccc1O (stereo unspecified) → -11%

Continuation:
SMILES | Mtb H37Rv | YopH PTP inh | Arbovirus anti | Mtb bLac sens | RecA splice inh
O=C(c1noc2c1CCCC2)N1CCN(c2ccc(F)cc2)CC1 | 1% | -23 | 1 | 5 | 0.6
Fc1ccc(-n2c(-c3cc(C4CC4)[nH]n3)n[nH]c2=S)cc1Cl | 3% | nt | nt | 1 | 0.6
CCOC(=O)C(C)Oc1ccc2c(CC)cc(=O)oc2c1C (stereo unspecified) | 10% | 9 | -2 | 97 | 5.8
Cc1nn(C2CCCO2)c(=O)nc1N (stereo unspecified) | 3% | nt | 7 | -4 | -1.2
Cc1ccc(C)c(OCc2nnc(NC(=O)c3ccco3)s2)c1 | 0% | -6 | -37 | -8 | -4.5
Cc1ccc(/C=N/NC(=O)c2ccccc2OCc2ccc(F)cc2)o1 | 6% | -19 | 1 | 3 | -0.5
COc1cccc2c1Oc1ncccc1N(C(=O)CCC(=O)NCc1ccccc1F)C2 | nt | nt | nt | -4 | 4.3
CCCCCCOC(=O)Cc1c(C)nc(-c2ccccc2)[nH]c1=O | -1% | -21 | 11 | -17 | -1.9
COc1cccc(-c2nn(-c3ccccc3)cc2CN(C)Cc2ccno2)c1 | 4% | nt | 1 | 2 | 5.2
N#C/C(=C\c1c(N2CCC(C(N)=O)CC2)nc2ccccn2c1=O)C(=O)NCc1ccco1 | -7% | -3 | -1 | -5 | -6.2
Cn1c(CCNC(=O)c2ccccc2F)nnc1SCC(=O)Nc1ccccc1F | 1% | nt | -1 | -2 | -2.6

This is a subset; rates above refer to the full screens.
